Assay outcomes: PubChem, Broad Institute
Env fusion inh: inhibitors of HIV Env-mediated cell fusion | actives 1.1% (n = 360,000) | AID 651610 | inhibition, % at 12.3 µM | HeLa-JRFL Env/CEM21 cell fusion, luciferase;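 active = mean replicate inhibition score of at least 50 and every replicate individually at or above 50; inconclusive = only one of the two criteria met; inactive = mean below 50 and not all replicates reaching 50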;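 note: 0% = plate neutral controls and 100% = maraviroc near 300 nM; one replicate is shown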
UUG fidelity: yeast start codon fidelity modulation; S. cerevisiae UUG-firefly luciferase reporter, luminescence/redox ratio; activity score, % at 18.7 µM; actives 0.13% (n = 350,000); AID 602363;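 active = replicate mean at a twofold rise or more, about +100% in these data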;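 note: firefly luciferase made from a UUG start codon reports start codon fidelity; reporter light over untreated wells divided by growth signal over untreated wells; some hits fall short of that in this replicate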
* hit, by the source's call; ? = inconclusive; [ ] = remark or other dose.

Order of values – UUG fidelity, Env fusion inh
- CC(=O)N(C)C[C@H]1Oc2cc(C#CC3(O)CCCC3)ccc2S(=O)(=O)N([C@H](C)CO)C[C@@H]1C
→ 6.8, -28.9[16.7 µM]
- C[C@H](CO)N1C[C@H](C)[C@@H](CN(C)C(=O)C2CCC2)Oc2ncc(-c3cccc(C#N)c3)cc2C1=O
→ -11.8, -29.5[16.7 µM]
- Cc1noc(C)c1NC(=O)Nc1ccc2c(c1)C(=O)N(C)[C@H]1CC[C@@H](CC(=O)N(C)C)O[C@@H]1CO2
→ 0.9, -4.3[16.7 µM]
- C[C@H](CO)N1C[C@H](C)[C@H](CN(C)Cc2ccccc2C(=O)O)Oc2cc(C#CC3CCCC3)ccc2S1(=O)=O
→ 17.7, -0.5[16.7 µM]
- CC(C)C#Cc1ccc2c(c1)O[C@H](CN(C)Cc1cncnc1)[C@@H](C)CN([C@H](C)CO)S2(=O)=O
→ -5.6, 9.0[16.7 µM]
- COc1ccc(S(=O)(=O)N(C)C[C@@H]2Oc3ccc(NC(=O)NC(C)C)cc3CC(=O)N([C@H](C)CO)C[C@H]2C)cc1
→ 21.0, -5.3[16.7 µM]
- COc1ccc(S(=O)(=O)Nc2ccc3c(c2)C(=O)N([C@@H](C)CO)C[C@@H](C)[C@@H](CN(C)S(=O)(=O)c2ccc(C)cc2)OCCCC[C@@H](C)O3)cc1
→ 0.2, -17.8[16.7 µM]
- Cc1ccc(-c2ccc3c(c2)O[C@@H](CN(C)Cc2cncnc2)[C@@H](C)CN([C@@H](C)CO)S3(=O)=O)cc1
→ 0.2, 5.6[16.7 µM]
- O=C(C[C@H]1C[C@H]2c3cc(NC(=O)Nc4ccccc4)ccc3O[C@H]2[C@H](CO)O1)NC1CCCCC1
→ -4.9, -21.1[16.7 µM]
- C[C@H]1CN([C@@H](C)CO)C(=O)c2cc(-c3cccc(F)c3)cnc2O[C@H]1CN(C)C(=O)C1CCOCC1
→ -1.6, -11.4[16.7 µM]
- C[C@H]1CN([C@@H](C)CO)S(=O)(=O)c2ccc(-c3ccccc3)cc2O[C@H]1CN(C)S(C)(=O)=O
→ 0.2, 14.5[16.7 µM]
- C[C@@H]1CN([C@@H](C)CO)C(=O)c2cc(NC(=O)C3CCCCC3)ccc2O[C@@H](C)CCCCO[C@@H]1CN(C)C(=O)Nc1ccc2c(c1)OCO2
→ -1.2, 1.2[16.7 µM]
- CC(C)CC#Cc1cnc2c(c1)C(=O)N([C@@H](C)CO)C[C@H](C)[C@H](CN(C)C(=O)c1cccnc1)O2
→ 5.5, 10.2[16.7 µM]
- C[C@@H]1CN([C@@H](C)CO)C(=O)c2cc(/C=C/c3ccccc3)cnc2O[C@@H]1CN(C)Cc1ccc2c(c1)OCO2
→ 23.8, 21.2[16.7 µM]
- Cc1ccccc1CN(C)C[C@@H]1OCc2cnnn2CCCC(=O)N([C@@H](C)CO)C[C@@H]1C
→ -1.1, 24.4[16.7 µM]
- C[C@H]1CN([C@@H](C)CO)C(=O)c2cc(NS(=O)(=O)c3ccc(Cl)cc3)ccc2O[C@H]1CN(C)Cc1ccncc1
→ -7.6, 4.1[16.7 µM]
- Cc1noc(C)c1NC(=O)Nc1ccc2c(c1)CC(=O)N([C@@H](C)CO)C[C@H](C)[C@@H](CN(C)Cc1ccc(Oc3ccccc3)cc1)O2
→ -8.3, -3.6[16.7 µM]
- C[C@H](CO)N1C[C@H](C)[C@H](CN(C)C(=O)NC2CCCCC2)Oc2ncc(-c3ccccc3F)cc2C1=O
→ 7.8, 1.6[16.7 µM]
- O=C(C[C@H]1C=C[C@H](NC(=O)CN2CCOCC2)[C@@H](CO)O1)NCc1cccc(F)c1
→ -15.3, -13.5[16.7 µM]
- COCCOC(=O)N1C(=O)[C@@]2(c3cc(C#CCC(C(=O)OC)C(=O)OC)ccc31)[C@H](C(N)=O)[C@H]1C(=O)O[C@H](c3ccccc3)[C@H](c3ccccc3)N1[C@@H]2c1ccc(OCCO)cc1
→ 1.4, -21.1[16.7 µM]
- CCS(=O)(=O)NCC[C@@H]1CC[C@@H](NC(=O)Cc2ccccn2)[C@H](CO)O1
→ 1.8, 2.2[16.7 µM]
- C[C@H](CO)N1C[C@H](C)[C@@H](CN(C)C(=O)C2CCOCC2)Oc2cc(C#Cc3ccncc3)ccc2S1(=O)=O
→ 1.9, 0.7[16.7 µM]
- COc1ccc2[nH]c3c(c2c1)CCN1C(=O)C(CC(=O)NCc2cccc(C(F)(F)F)c2)C[C@H](C(=O)N2CCCCC2)[C@@]31CCc1ccccc1 (stereo not given in full)
→ -14.4, 44.6
- CCC(=O)N(C)C[C@H]1Oc2cc(C#Cc3ccccc3)ccc2S(=O)(=O)N([C@H](C)CO)C[C@@H]1C
→ 30.0, 15.0[16.7 µM]
- C[C@H]1CN([C@@H](C)CO)C(=O)c2cccc(NC(=O)C3CCCCC3)c2O[C@@H]1CN(C)S(C)(=O)=O
→ 8.2, 9.2[16.7 µM]
- CCCc1cn(CC[C@@H]2CC[C@H](NS(=O)(=O)c3ccc(-c4ccccc4)cc3)[C@@H](CO)O2)nn1
→ -4.3, 16.8[16.7 µM]
- C[C@@H]1CN([C@H](C)CO)S(=O)(=O)c2ccc(C#CC3CCCC3)cc2O[C@@H]1CN(C)C(=O)Cc1ccccc1
→ -12.5, -3.9[16.7 µM]
- CN(C)C(=O)C[C@@H]1CC[C@@H]2[C@H](COC[C@H](O)CN2S(=O)(=O)c2ccccc2Cl)O1
→ -9.7, 0.2[16.7 µM]
- CCCNC(=O)N[C@H]1CC[C@@H](CCNS(=O)(=O)c2cccc(F)c2)O[C@@H]1CO
→ 10.4, 5.4[16.7 µM]
- C/C=C/c1cnc2c(c1)C(=O)N([C@H](C)CO)C[C@H](C)[C@H](CN(C)C(=O)NC1CCCC1)O2
→ 3.2, 4.0[16.7 µM]
- C[C@H](CO)N1C[C@H](C)[C@@H](CN(C)Cc2ccc(-c3ccccc3)cc2)Oc2ccc(NC(=O)Cc3ccccc3)cc2C1=O
→ -6.2, -7.9[16.7 µM]
- NCC[C@H]1CC[C@@H](NC(=O)C2CCCCC2)[C@H](CO)O1
→ 5.4, -30.6[16.7 µM]
- C[C@@H]1CN([C@H](C)CO)C(=O)c2cc(NC(=O)Nc3ccccc3)ccc2O[C@H]1CN(C)Cc1ccc(C(F)(F)F)cc1
→ 4.9, 1.5[16.7 µM]
- CC(C)NC(=O)N(C)C[C@@H]1Oc2ncc(C#CCC3CCCC3)cc2C(=O)N([C@@H](C)CO)C[C@H]1C
→ 0.1, 7.6[16.7 µM]
- C[C@@H]1CCCCO[C@H](CN(C)C(=O)CCCN(C)C)[C@@H](C)CN([C@@H](C)CO)C(=O)c2cc(NC(=O)c3ccncc3)ccc2O1
→ 7.8, 11.3[16.7 µM]
- C[C@@H]1CCCCO[C@H](CN(C)S(=O)(=O)c2cccs2)[C@@H](C)CN([C@@H](C)CO)C(=O)c2cc(NC(=O)NC3CCCCC3)ccc2O1
→ -8.5, -2.4[16.7 µM]
- C[C@H](CO)N1C[C@H](C)[C@H](CN(C)C(=O)Nc2ccc(F)cc2)Oc2c(NC(=O)NC3CCCCC3)cccc2C1=O
→ -9.5, -2.6[16.7 µM]
- CNC[C@@H]1OCCCC[C@@H](C)Oc2ccc(NS(=O)(=O)c3ccc(C)cc3)cc2C(=O)N([C@H](C)CO)C[C@H]1C
→ 16.3, 0.7[16.7 µM]
- O=C(C[C@@H]1C=C[C@H](NS(=O)(=O)c2ccccc2)[C@@H](CO)O1)N1CCc2ccccc2C1
→ -9.0, -22.3[16.7 µM]
- O=C(N[C@@H]1C=C[C@@H](CC(=O)N2CCc3ccccc3C2)O[C@@H]1CO)C1CCC1
→ 5.0, 9.5[16.7 µM]
- COCC#Cc1ccc2c(c1)O[C@H](CN(C)C(=O)C1CCOCC1)[C@@H](C)CN([C@H](C)CO)S2(=O)=O
→ 10.4, -4.9[16.7 µM]
- C[C@@H]1CN([C@H](C)CO)C(=O)Cc2cc(NS(=O)(=O)c3ccc(F)cc3)ccc2O[C@H]1CN(C)C(=O)Nc1ccc(C(F)(F)F)cc1
→ -3.0, -17.7[16.7 µM]
- O=C(C[C@H]1CC[C@@H](NS(=O)(=O)c2ccccc2)[C@@H](CO)O1)N1CCc2ccccc2C1
→ -1.7, 11.5[16.7 µM]
- C[C@@H]1CN([C@H](C)CO)C(=O)c2cc(NC(=O)Nc3ccc(C(F)(F)F)cc3)ccc2O[C@@H](C)CCCCO[C@@H]1CN(C)Cc1ccccc1
→ 2.1, ?
- C[C@@H]1CCCCO[C@@H](CN(C)S(=O)(=O)c2ccccc2)[C@@H](C)CN([C@H](C)CO)C(=O)c2cc(NC(=O)C3CCCCC3)ccc2O1
→ -3.7, 8.3[16.7 µM]

3 compounds out of the list above, sorted by their value in UUG fidelity, rising:
| smiles | UUG fidelity | Env fusion inh |
| --- | --- | --- |
| O=C(C[C@@H]1C=C[C@H](NS(=O)(=O)c2ccccc2)[C@@H](CO)O1)N1CCc2ccccc2C1 | -9.0 | -22.3[16.7 µM] |
| CC(C)NC(=O)N(C)C[C@@H]1Oc2ncc(C#CCC3CCCC3)cc2C(=O)N([C@@H](C)CO)C[C@H]1C | 0.1 | 7.6[16.7 µM] |
| C[C@@H]1CCCCO[C@H](CN(C)C(=O)CCCN(C)C)[C@@H](C)CN([C@@H](C)CO)C(=O)c2cc(NC(=O)c3ccncc3)ccc2O1 | 7.8 | 11.3[16.7 µM] |

Later entries.
Order of values – UUG fidelity, Env fusion inh
- COc1ccc(NC(=O)N(C)C[C@H]2OCCCC[C@@H](C)Oc3ccc(NC(=O)Nc4ccccc4)cc3C(=O)N([C@H](C)CO)C[C@@H]2C)cc1
→ -7.7, -7.0[16.7 µM]
- C[C@H]1CCCCO[C@H](CN(C)C(=O)Nc2cccc3ccccc23)[C@@H](C)CN([C@@H](C)CO)C(=O)c2cc(NS(C)(=O)=O)ccc2O1
→ -3.8, 37.9[16.7 µM]
- Cc1noc(C)c1NC(=O)N(C)C[C@@H]1OCCCC[C@H](C)Oc2ccc(NS(=O)(=O)c3ccccc3)cc2C(=O)N([C@@H](C)CO)C[C@H]1C
→ 13.2, -31.0[16.7 µM]
- C[C@@H]1CN([C@@H](C)CO)S(=O)(=O)c2ccc(-c3cccc(F)c3)cc2O[C@H]1CN(C)S(=O)(=O)c1ccc(F)cc1
→ -12.8, 49.0[16.7 µM]
- COc1ccc(S(=O)(=O)N2C[C@@H](O)COC[C@H]3O[C@H](CC(=O)NCc4ccc(Cl)c(Cl)c4)CC[C@@H]32)cc1
→ 13.1, 11.2[16.7 µM]
- COc1cccc(S(=O)(=O)N[C@H]2C=C[C@H](CC(=O)NCc3ccc(F)cc3)O[C@H]2CO)c1
→ -9.4, -18.1[16.7 µM]
- CO[C@H]1CN(C)C(=O)c2cc(NS(=O)(=O)c3ccccc3Cl)ccc2OC[C@@H](C)NC[C@@H]1C
→ -4.4, -6.7[16.7 µM]
- C[C@@H]1CN([C@@H](C)CO)C(=O)c2cc(NS(=O)(=O)c3cn(C)cn3)ccc2O[C@@H](C)CCCCO[C@@H]1CN(C)C(=O)c1ccncc1
→ 5.1, -7.0[16.7 µM]
- O=C(C[C@H]1CC[C@H](NC(=O)Nc2ccccc2)[C@H](CO)O1)NCc1ccccn1
→ -10.0, 5.6[16.7 µM]
- CCCN(C)C[C@H]1OCCCC[C@H](C)Oc2ccc(NS(=O)(=O)c3ccc(F)cc3)cc2C(=O)N([C@H](C)CO)C[C@H]1C
→ 24.3, 7.8[16.7 µM]
- COc1ccc(NC(=O)N(C)C[C@H]2Oc3ncc(C#CCC(C)C)cc3C(=O)N([C@H](C)CO)C[C@@H]2C)cc1
→ 29.3, 10.1[16.7 µM]
- C[C@H]1CN([C@@H](C)CO)C(=O)Cc2cc(NC(=O)NC3CCCCC3)ccc2O[C@H]1CN(C)Cc1ccccc1
→ 16.7, -3.7[16.7 µM]
- Cc1ccc(S(=O)(=O)N[C@@H]2CC[C@H](CCNC(=O)c3ccc4c(c3)OCO4)O[C@@H]2CO)cc1
→ 13.4, 4.7[16.7 µM]
- C[C@@H]1CN([C@H](C)CO)S(=O)(=O)c2ccc(-c3ccccc3)cc2O[C@@H]1CN(C)Cc1ccccc1C(=O)O
→ 4.4, -37.0[16.7 µM]
- COc1ccc(S(=O)(=O)N(C)C[C@H]2Oc3c(NS(=O)(=O)c4ccccc4)cccc3C(=O)N([C@H](C)CO)C[C@H]2C)cc1
→ 9.6, -1.3[16.7 µM]

Record cards (already shown).
`C[C@H]1CN([C@@H](C)CO)C(=O)c2cc(-c3cccc(F)c3)cnc2O[C@H]1CN(C)C(=O)C1CCOCC1` as listed: UUG fidelity: -1.6; Env fusion inh: -11.4[16.7 µM]
`C[C@H]1CN([C@@H](C)CO)S(=O)(=O)c2ccc(-c3ccccc3)cc2O[C@H]1CN(C)S(C)(=O)=O` as listed: UUG fidelity: 0.2; Env fusion inh: 14.5[16.7 µM]

Continuation:
Order of values – UUG fidelity, Env fusion inh
- O=C(Nc1ccc2c(c1)[C@H]1C[C@@H](CC(=O)N3CCc4ccccc4C3)O[C@@H](CO)[C@H]1O2)C1CCC1
→ -3.9, -0.4[16.7 µM]
- COCC(=O)Nc1ccc2c(c1)C(=O)N(C)C[C@@H](OC)[C@@H](C)CN(Cc1ccncc1)[C@@H](C)CO2
→ -3.0, 10.9[16.7 µM]
- C[C@@H]1CCCCO[C@@H](CN(C)C(=O)Nc2ccc(F)cc2)[C@H](C)CN([C@H](C)CO)C(=O)c2cc(NC(=O)NC3CCCCC3)ccc2O1
→ -13.0, 15.6[16.7 µM]
- C[C@H]1CN([C@@H](C)CO)C(=O)c2cccc(NC(=O)C3CC3)c2O[C@H]1CN(C)Cc1ccc(C(=O)Nc2ccccc2N)cc1
→ 15.1, 27.2[16.7 µM]
- CCC(=O)N(C)C[C@H]1Oc2ncc(C#Cc3ccccc3OC)cc2C(=O)N([C@H](C)CO)C[C@H]1C
→ 5.9, -9.9[16.7 µM]
- COc1ccccc1S(=O)(=O)N[C@@H]1CC[C@H](CC(=O)N2CCOCC2)O[C@H]1CO
→ -1.4, 12.1[16.7 µM]

An excerpt, so the mix of outcomes need not match the whole.
